NPYLR7 agonist: mosquito NPYLR7 agonism; HEK293T NPYLR7/Galpha15, GCaMP6s calcium fluorescence; hit rate 0.15% among 270,000; AID 1259423; activation, % at 10 µM; in the data active means activation above about 40%;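 further: 0% = vehicle and 100% = reference agonist at the receptor; some compounds past the cut are filed as inactive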
NPYLR7 agonist max-min: further read-out of NPYLR7 agonist, marked with its call; activation, %; measured here: Max-Min RFU normalised activation; some inactives read as strong as hits;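 span of the calcium signal over five minutes; 0% = vehicle and 100% = native peptide agonist; compound fluorescence can raise it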
* = called active by the depositor; & = joins results of further samples.

SMILES	NPYLR7 agonist	NPYLR7 agonist max-min
COc1ccc(CCN(C)C2CCCN(c3ncnc4nc[nH]c34)C2)cc1OC (stereo not given)	23	10
CCCCc1ccc(CNC(=O)c2cc(-c3cccs3)nc3cc(C)c(C)cc23)cc1	10	0
CCOC(=O)C1=C(C)N=c2s/c(=C/c3ccc(C)cc3)c(=O)n2C1c1ccc(C)cc1 (stereo not given)	9	13
CCCn1c(=O)c2ccccc2n2c(SCC(O)COc3c(C)cccc3C)nnc12 (stereo not given)	5	3
Cc1ccc(C2c3ccccc3CCN2C(=O)c2c(F)cccc2F)cc1 (stereo not given)	26	15
COc1ccc(C=NNc2nc(-c3ccccc3)c(C)s2)cc1OC	4	3
CSCC(C)N(C)C(=O)Nc1cnn(Cc2ccccc2)c1 (stereo not given)	9	7
CCOC(=O)C1(C)CCCCN1C(=O)c1cccc(Cl)c1 (stereo not given)	1	0
COc1cccc(COc2coc(CN3CCCN(S(=O)(=O)c4cc(C(F)(F)F)cc(C(F)(F)F)c4)CC3)cc2=O)c1	-4	-2
O=C1Nc2ccccc2/C1=C/C(=O)c1ccc(Cl)cc1	31	18
CCC(CC)c1nnc(NC(=O)CCc2c(C)nc3ncnn3c2C)s1	-2	-3
O=c1c(-c2ccc(Oc3ccccc3)cc2)[n+]([O-])c2ccccc2n1O	20	8
C=CCN1CC(OC(=O)NCc2ccc(F)cc2)CN(C(=O)c2cccs2)CC1=O (stereo not given)	0	9
O=C(Cc1ccc2ccccc2c1)NCCN1C(=O)CSC1=O	-3	-3
Cc1ccc(-c2sc(-c3ccccc3)nc2CC(=O)NC2CC2)cc1	6	6
O=C(Cn1cncn1)N1CCOC(CC(c2ccccc2)c2ccccc2)C1 (stereo not given)	4	2
COCC(=O)Nc1ccc(N2CCN(C(=O)c3c(F)cc(F)cc3F)CC2)nc1	-3	0
Cc1ccc(S(=O)(=O)N(C)CC(=O)Nc2nncs2)cc1C	1	1
CCc1nn2c(NCCN3CCOCC3)cc(C)nc2c1-c1ccccc1	1	3
CC(O)CN1CCN(CC(=O)Nc2ccnn2C(C)C)CC1C (stereo not given)	11	8
Cn1c(-c2cc3n(n2)CCN(C(=O)CCN2CCCO2)C3)nc2ccccc21	32	18
COc1cc(-c2nc3cc(OC(C)=O)ccc3c(=O)o2)cc(OC)c1OC	-11	-15
CCOCCn1c(CN2CCN(Cc3ccccc3)CC2)nc2c1c(=O)n(C)c(=O)n2C	-3	-3
COc1cc(Cl)c(C)cc1NS(=O)(=O)c1c(C)n[nH]c1C	6	3
Cc1cccc(N2CC(Nc3nccc(CCC(F)(F)F)n3)CC2=O)c1 (stereo not given)	-2	-1
CCCc1cc(CN(C)C(=O)c2cc(Cn3nc(C)cc3C)[nH]n2)[nH]n1	21	7
COCCNC(=O)c1cccc(CSc2nc(-c3ccccc3)cc(N(C)C)n2)c1	15	19
CCOc1ccc(N(CN2C(=O)c3ccccc3C2=O)C(=O)C(C)C)cc1	-6	-11
Cc1cc(C)nc(NN=Cc2cc(C)n(-c3ccc(I)cc3)c2C)n1	17	9
COc1ccc(Cn2cccc(C)c2=O)c(Cl)c1	0	-2
O=C(C1CCCC1)N1CCC(c2cn(Cc3cccc(F)c3)c3ccccc23)CC1	-1	-8
Cc1ccccc1CC1(CO)CCCN(C(=O)CN2CCOC2=O)C1 (stereo not given)	4	7
Cc1csc2nc(Cn3cnc4c3c(=O)n(C)c(=O)n4C)cc(=O)n12	0	40
CCOC(=O)c1ccc(NC(=O)N2CC(=O)N3CCc4ccc(Cl)cc4C3C2)cc1 (stereo not given)	0	13
Cc1ccccc1Cn1c(=O)c2c(nc3n2CC(C)CN3Cc2ccccc2)n(C)c1=O (stereo not given)	9	8
COCCCN(CC(=O)N1CCc2sccc2C1c1ccc(OC)cc1)C(=O)/C=C/c1ccccc1 (stereo not given)	7	6
CC(=O)c1c(C)nn(CC(=O)N(C)Cc2noc(C)n2)c1C	-1	-6
O=C(O)c1cc2ccccc2c(=O)s1	4	2
COC(=O)c1cccc2c1CCCN2S(=O)(=O)c1ccc(C)c(C)c1	8	8
CC(C)(C(=O)Nc1cnc2ccccc2c1)n1cc(-c2cccnc2)cn1	7	14
COC(=O)c1ccc(S(=O)(=O)Nc2cc(CC(C)C)[nH]n2)cc1C	0	63
Cc1cc(S(=O)(=O)N2CCC(C(N)=O)CC2)c(C)cc1Cl	9	5
Cc1oc(-c2cccc(C(F)(F)F)c2)nc1CC(=O)N1CCC[C@H]1C(=O)N1CCC(C(=O)N2CCOCC2)CC1	10	-3
Cc1cnc(NC(=O)CC23CC4CC(CC(C4)C2)C3)s1	11	15
O=C(CN1c2cccc3cccc(c23)S1(=O)=O)Nc1ccccc1C(=O)NC1CCCC1	9	7
O=C(c1cc(COc2cccc(C(F)(F)F)c2)on1)N1CCCC(CCCO)C1 (stereo not given)	-3	-6
CN(C(=O)c1ccc(NCc2ccncc2)cc1)C1Cc2ccccc2C1	5	-3
O=C(O)CC1OC(=O)c2ccccc21 (stereo not given)	1	-2
CCn1cc(S(=O)(=O)c2ccc(OC)cc2)c(=O)c2cc(F)c(N3CCC(C)CC3)cc21	16	15
CCN(CC)CCNc1cccc(Br)c1	8	4
COC(=O)C(NC(=O)Cc1ccc(F)cc1)c1ccccc1 (stereo not given)	-5	-5
Cc1ccc2c(c1)NC(c1ccco1)C1C(=O)CC(C)(C)CC1=N2 (stereo not given)	15	8
O=C(CNC(=O)NC1CCc2cc(F)ccc21)Nc1cccnc1 (stereo not given)	-2	-6
CC1(C)CC(=O)c2c(oc3c2cc(NS(=O)(=O)c2ccc(Cl)c([N+](=O)[O-])c2)c2ccccc23)C1	-5	-9
CC(C)c1n[nH]c2c1CN(C(=O)CCc1c[nH]c3ccccc13)CC2	2	-1
COc1ccccc1-n1cc(CN2CCC(CNC(C)=O)C2)cn1 (stereo not given)	5	3
CCCCc1ccc(C(=O)N2CCN(C(C(=O)NCc3ccccn3)C3CCCC3)CC2)cc1 (stereo not given)	-3	3
Cc1cc(/C=N\O)c(C)n1-c1ccc(-c2ccccc2)cc1	-11	-18
NC(=O)CNCCC(c1ccccc1)c1ccccc1	-8	-11
Nc1nccc(-c2ccc3noc(-c4ccc(Cl)cc4)c3c2)n1	8	1
(more compounds)
SMILES	NPYLR7 agonist	NPYLR7 agonist max-min
COc1cc(CN2CCN(c3nc(Cc4ccc(C)cc4)nc4c3c(C)nn4-c3ccccc3)CC2)cc(OC)c1	7	10
CN(c1ccc(Br)cc1F)S(=O)(=O)c1c[nH]c(C(=O)O)c1	6	2
C/C(=N/N=C1\NC(=O)C(CC(=O)Nc2ccccc2C)S1)c1ccccc1 (stereo not given)	3	1
COc1ccc2oc(=O)c(-c3nnc(-c4ccc(Br)cc4)o3)cc2c1	3	-2
O=C(c1c(F)cccc1F)N1CCCN(c2nc3ccccc3nc2-c2ccccc2)CC1	0	-3
CCCc1c(C)nn(-c2ccc(C(=O)NCC3CCCCC3)cc2)c1C	-10	-14
CC(Oc1ccccc1)C(=O)N1CCN=C1SCc1cccnc1 (stereo not given)	-3	-5
Cc1ccc(-n2ncc3c(C)nn(CC#N)c(=O)c32)cc1C	7	3
O=C(NC1CCSc2ccccc21)c1cc(=O)[nH]c2ccccc12 (stereo not given)	4	5
CCN(CC)C(=O)Oc1ccc2c(ccn2Cc2cc(F)ccc2C)c1-c1ccc(F)c(F)c1	12	8
COc1cc(OC)cc(C(=O)Nc2c(C)nc3scc(C)n3c2=O)c1	10	0
Cc1cccc(NC(=O)C(C)OC(=O)C2=CN3CCS(=O)(=O)N=C3C=C2)c1 (stereo not given)	2	-3
NC(=O)C1(N2CCCCC2)CCN(C(=O)CCCn2c(=O)[nH]c3ccccc3c2=O)CC1	-3	-4
C1CCCN(c2nc3nonc3nc2NCCN2CCOCC2)CC1	9	3
O=C(CSc1ccc2nnc(CCNC(=O)c3ccc(F)cc3)n2n1)NCc1ccco1	-18	-21
CN(C)C1CCCN(C(=O)Cc2ccccc2O)CC1 (stereo not given)	-1	-3
Cc1ccc(NC(=O)CNc2ccn(CC(N)=O)n2)c(Br)c1	7	3
Cc1ccc(Nc2ccc(N3CCN(S(=O)(=O)c4cc(C)c(C)cc4C)CC3)nn2)cc1	-2	-3
CC1Cc2cc(/C=C3/SC(N4CCC(C(N)=O)CC4)=NC3=O)ccc2O1 (stereo not given)	5	1
COc1cccc2cc(-c3nc4ccccc4[nH]3)c(=Nc3ccc(Cl)cc3Cl)oc12	5	14
CCc1nc2ccc(C(=O)N(C)Cc3ccccc3)cn2c1N(C=O)CC	-5	-10
CCc1[nH]c2c(CNS(=O)(=O)c3cnn(CC)c3)cc(F)cc2c1C	0	-4
COC(=O)C1C(O)=C(C=NCCc2ccc(OC)c(OC)c2)C(=O)CC1(C)C (stereo not given)	6	6
COCCOC(=O)C1=C(C)OC(=N)C(C#N)C1c1ccc(Br)cc1 (stereo not given)	-15	-18
O=C(CSc1nc2[nH]ncc2c(=O)[nH]1)Nc1ccccc1F	-3	-5
CCOc1ccc(CN(C)C(=O)COc2ccc(C)c3c2C(=O)CC3C)cc1 (stereo not given)	-5	-4
Cc1cc(C)nc(C(C#N)C(=O)c2ccc(OC(C)(C)C)cc2)n1 (stereo not given)	6	6
CCc1ccccc1-c1cncc(C(=O)O)c1	-5	-5
CCOC(=O)c1ccc(NC(=O)NCCN2CCN(c3nc(Cc4ccc(C)cc4)ns3)CC2)cc1	-7	-7
Cc1cc(C)nc(NS(=O)(=O)c2ccc(NC(=O)NC(=O)N(C)S(C)(=O)=O)cc2)n1	2	3
c1cn(Cc2ccc3c(c2)OCO3)c(-c2ccc(C3CCCCO3)o2)n1 (stereo not given)	0	-6
CO/N=C(/C(=O)NCCc1cccc(F)c1)c1csc(NC=O)n1	-3	-15
O=S(=O)(O)c1nc2ccccc2[nH]1	-8	-14
COc1ccc(NC(=O)N2CCc3ccccc3C2c2ccccc2Cl)c(OC)c1 (stereo not given)	25	15
COc1ccc(CCNC(=O)Nc2ccc3nc([C@@H]4O[C@H](CO)[C@@H](O)[C@H](O)[C@H]4O)[nH]c3c2)cc1Br	16	20
Cc1nn(-c2ccc([N+](=O)[O-])cc2)c2c1C(c1ccccn1)N1C(=N2)C(=O)Nc2ccccc21 (stereo not given)	0	0
Cc1[nH]n2c(=O)c3c(nc2c1-c1ccccc1)CCCC3	2	5
Cc1ccc2nc(CN(C)C(=O)c3cc(C)nc(C)n3)[nH]c2c1	14	9
CCc1nc(C)c(C(=O)N2CCc3c(nc(C)nc3N(C)C)C2)o1	16	11
COc1ccc(-c2nnc(-c3ccc(Br)o3)o2)cc1OC	2&11	1&11
NC(C(=O)O)c1nn[nH]n1 (stereo not given)	-15	-19
COC(=O)CCCCCCC(=O)N1CC(=O)N2CCc3cc(OC)c(OC)cc3C2C1 (stereo not given)	12	1
O=C(O)c1ccccc1CN(Cc1ccsc1)Cc1ccco1	-6	-16
CCCC(O)(CCC)CC(=O)N(C)Cc1ccccc1Cl	2	0
CSc1cccc(NC(=O)c2ccc(-n3nc(-c4cccc(C(F)(F)F)c4)cc3N)cc2)c1	8	3
COCCCN(Cc1c(-c2ccc(F)cc2)noc1N1CCN(C)CC1)C(=S)Nc1ccc(F)cc1	8	6
Brc1nnc2ccc(N3CCOCC3)nn12	-2	-1
COc1ccc(Br)cc1CN1C(=O)c2ccccc2S1(=O)=O	4	5
CCOc1ccccc1CCC(=O)N(C)CC(=O)Nc1c(C)cc(C)cc1C	-4	-5

Some of the compounds tested; rates above refer to the full screens.
